CSC inhib – blocks cancer stem cells; cancer stem cell-like cells viability, luminescence; inhibition, % at 7.5 µM; hit rate 1.1% among 300,000;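 active means mean at 75% or more and at least half the replicates too; tested in HMLE shEcad cells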;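 further: 0% = median of negative and 100% = median of positive control wells; the first replicate is given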
MT1-MMP act inh – MT1-MMP (human) activation inhibition; HT1080 RFP-PRO-GFP cells, GFP/RFP ratio fluorescence, overnight; percent of plate control window, DMSO zero; AID 651647; P50281; GFP/RFP ratio change, % at 20 µM; hit rate 0.061% among 360,000;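 active means GFP/RFP ratio change of at least 30% with cell ATP level not reduced by more than half and red fluorescence within 50% of control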; further: strong numbers were not always called active
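system = RFP-PRO-GFP reporter HT1080 cells | dosing = 20 µM single dose, 1% DMSO | timing = overnight cell settling, then overnight compound exposure, 37 °C, 5% CO2 | read-out basis = GFP/RFP fluorescence ratio | controls = DMSO and RFP-L50D-GFP cell wells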
PABP FP inh – blocks human PABP binding to poly(A) RNA; P11940; inhibition, % at 35 µM; fluorescence polarization; hit rate 1% among 290,000;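 active means 50% or more with normal probe brightness, or confirmed in later tests; about a fifth of its hits are not listed in these tables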;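 further: calls also rest on retests at 20 µM and on dose response follow-up; controls were probe without protein and protein plus probe with vehicle; some compounds called inactive have numbers as strong as hits; many hits fall short of the cut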
Target sequence (P11940 whole entry, looked up): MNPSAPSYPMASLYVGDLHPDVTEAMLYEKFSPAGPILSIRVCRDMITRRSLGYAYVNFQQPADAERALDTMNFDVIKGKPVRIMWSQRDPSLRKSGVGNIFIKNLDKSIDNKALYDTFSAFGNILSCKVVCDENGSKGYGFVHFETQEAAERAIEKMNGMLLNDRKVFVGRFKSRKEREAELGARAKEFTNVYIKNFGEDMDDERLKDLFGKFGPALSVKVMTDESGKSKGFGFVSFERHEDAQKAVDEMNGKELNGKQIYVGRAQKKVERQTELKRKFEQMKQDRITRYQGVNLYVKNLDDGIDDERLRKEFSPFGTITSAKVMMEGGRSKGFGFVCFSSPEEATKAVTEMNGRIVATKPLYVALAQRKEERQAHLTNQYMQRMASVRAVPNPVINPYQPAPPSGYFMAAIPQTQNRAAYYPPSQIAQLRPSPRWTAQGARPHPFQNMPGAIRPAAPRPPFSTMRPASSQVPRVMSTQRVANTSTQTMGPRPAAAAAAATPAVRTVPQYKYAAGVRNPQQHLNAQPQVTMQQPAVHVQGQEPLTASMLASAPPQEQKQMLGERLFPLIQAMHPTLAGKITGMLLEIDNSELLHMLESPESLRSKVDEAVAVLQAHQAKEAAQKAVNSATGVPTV
HIV Env fusion – HIV envelope-mediated fusion inhibition | hit rate 1.1% among 360,000 | AID 651610 | HeLa-JRFL Env/CEM21 cell fusion, luciferase | inhibition, % at 12.3 µM;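 active means mean replicate inhibition score of at least 50 and every replicate individually at or above 50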;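 further: 0% = plate neutral controls and 100% = maraviroc near 300 nM; one replicate is shown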
eIF4H inh – inhibitors of RNA binding by human eIF4H. eIF4H fluorescence polarization binding assay. hit rate 0.94% among 290,000. AID 2012. inhibition, % at 35 µM;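 active means 50% or more with normal probe brightness, or confirmed in later tests; about a fifth of its hits are not listed in these tables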;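 further: calls also rest on retests at 20 µM and on dose response follow-up; 0% = protein and probe with vehicle and 100% = probe without protein; strong numbers were not always called active; many hits fall short of the cut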
Yeast UUG start – yeast start codon fidelity modulation; S. cerevisiae UUG-firefly luciferase reporter, luminescence/redox ratio; activity score, % at 18.7 µM; hit rate 0.13% among 350,000; AID 602363;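 active means replicate mean at a twofold rise or more, about +100% in these data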;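 further: firefly luciferase made from a UUG start codon reports start codon fidelity; reporter light over untreated wells divided by growth signal over untreated wells; some hits fall short of that in this replicate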
Rce1 inhib – yeast Ras-converting enzyme inhibition; Q03530; yeast membranes, quenched prenylated peptide cleavage fluorescence; calls only; hit rate 0.27% among 290,000; AID 2563;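 active means fall in fluorescence gain of 50% or more versus controls, with final raw signal at or below 3038400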;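 further: plate controls were neutral control wells for no effect and wells lacking membranes for full effect; tested at 10 µM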
MT1-MMP act inh RFP – also measured in MT1-MMP act inh; calls as there; RFP signal change, %; measured here: RFP expression control read;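 0 = vehicle wells; hits needed this value within 50% of zero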
An asterisk follows results filed as active; i = inactive; x = no result given; & = joins results of further samples.

1) CC(Nc1nc(N2CCN(CCO)CC2)nc2ccccc12)c1ccccc1 (stereo unspecified)
2) CN(Cc1ccccc1)C(=O)COC(=O)c1cc(=O)[nH]c2ccccc12
3) COC(=O)N(C)C[C@H]1OCc2cnnn2CCCC(=O)N([C@H](C)CO)C[C@H]1C
4) CC1=C(C(=O)Nc2ccccc2C(=O)NCCCOC(C)C)SCCO1
5) COc1ccc(C(=O)Oc2ccc(/C=N/NC(=O)c3ccccc3OC)cc2[N+](=O)[O-])cc1
6) CCOc1ccc(NC(=O)CN(C)C(=O)c2cc(C)nc3ccccc23)cc1OCC
Compound	1	2	3	4	5	6
CSC inhib	-8.9	-7.5	x	-18.6	4.8	-17.1
MT1-MMP act inh	x	0.9	-1.0	-1.5	0.1	0.7
MT1-MMP act inh RFP	x	1.0	4.9	-3.0	0.9	3.2
PABP FP inh	-11.9	x	x	1.3	-20.9	x
HIV Env fusion	-11.6	-17.3	-38.1	-18.1	9.6	18.0
eIF4H inh	-2.8	x	x	-7.4	-10.1	x
Yeast UUG start	x	-0.4	-12.7&5.7	-9.6	-8.5	12.9
Rce1 inhib	i	x	x	i	i	x

7) C/C(=N\Nc1ccc(Cl)c(C(=O)O)c1)c1cc2ccccc2o1
8) COc1ccccc1NCCC(=O)OCC(=O)NC1CCCC(C)C1C (stereo unspecified)
9) CSc1ccccc1NC(=O)c1ccc(N2CCCC2=O)cc1
10) N#Cc1cc([N+](=O)[O-])cnc1N(CCO)CCO
11) CN1CCN(S(=O)(=O)c2cccc(C(=O)Nc3cc(C(F)(F)F)ccc3N3CCCCC3)c2)CC1
12) COc1ccc(NC(=O)c2ccc3nc[nH]c3c2)cc1
Compound	7	8	9	10	11	12
CSC inhib	0.3	-1.5	-14.3	1.1	86.6*	-2.3
MT1-MMP act inh	6.1	-1.4	5.4	-2.6	-2.0	0.1
MT1-MMP act inh RFP	4.5	2.3	1.7	4.0	-3.1	-3.0
PABP FP inh	18.4	0.3	x	-14.4	x	-1.9
HIV Env fusion	0.7	-25.7	-224.7	20.4	-1.5	-21.5
eIF4H inh	-0.9	4.7	x	11.7	x	6.3
Yeast UUG start	-4.7	x	-34.4	x	x	-13.9
Rce1 inhib	x	i	x	i	i	i

13) COn1c(-c2ccc(C)cc2)nc2ncccc21
14) COc1ccc(Oc2c(C)oc3cc(OC(=O)N4CCOCC4)ccc3c2=O)cc1
15) COc1ccc(CCNC(=O)C(=O)NCC2OCCN2S(=O)(=O)c2cccs2)cc1 (stereo unspecified)
16) Cc1ccc(S(=O)(=O)NCC(=O)OCCOc2ccccc2F)cc1
17) O=C(NCCCN1CCOCC1)c1cc2ccccc2o1
18) CC1CCC2(CC1)NC(=O)N(CC(=O)NC(C)c1ccc(F)c(F)c1)C2=O (stereo unspecified)
Compound	13	14	15	16	17	18
CSC inhib	-6.1	-21.5	-7.3	-7.6	-3.9	0.8
MT1-MMP act inh	-2.6	1.1	-2.2	0.4	0.2	5.1
MT1-MMP act inh RFP	-0.3	-1.0	-4.7	0.0	3.8	1.5
PABP FP inh	4.6	5.0	1.7	x	1.0	x
HIV Env fusion	-29.3	23.8	-3.4	x	x	x
eIF4H inh	11.2	-4.8	-7.2	x	-3.6	x
Yeast UUG start	-5.6	-6.4	-1.0	6.9	-40.8	3.3
Rce1 inhib	i	i	i	x	i	x

19) O=C(Nc1ccccc1)NC1CCN(Cc2nnnn2C2CCCCC2)CC1
20) Cc1ccc(NC(=O)CN(C)S(=O)(=O)c2cccc3nsnc23)cc1C
21) Cc1cc(C)n2nc3nc(N4CCCC4)nc(-c4ccccc4)c3c2n1
22) CCOCCCNC(=S)Nc1cc(OCC)c(NC(=O)c2ccco2)cc1OCC
23) CC(/C=C1\SC(=S)N(C(C(=O)O)C(C)C)C1=O)=C\c1ccccc1 (stereo unspecified)
24) O=C(O)/C(=C\c1cccc([N+](=O)[O-])c1)c1ccc(S(=O)(=O)N2CCCCC2)s1
Compound	19	20	21	22	23	24
CSC inhib	0.4	-15.6	x	-3.7	21.6	-11.0
MT1-MMP act inh	2.4	-7.7	3.3	-2.3	-4.8	9.1
MT1-MMP act inh RFP	0.5	-3.0	2.0	3.0	2.2	-2.8
PABP FP inh	-3.2	6.8	-5.1	1.0	4.8	23.0
HIV Env fusion	-22.7	20.7	x	-3.9	6.1	6.9
eIF4H inh	-2.8	2.1	-8.2	2.6	7.2	5.5
Yeast UUG start	-11.1	-12.4	-19.4	-20.0	x	x
Rce1 inhib	i	i	i	i	i	i

Values by screen from above:
Nos. 19–24 in MT1-MMP act inh read 2.4, -7.7, 3.3, -2.3, -4.8, 9.1
Nos. 19–24 in CSC inhib read 0.4, -15.6, x, -3.7, 21.6, -11.0

(cont.)
25) COc1ccc(NS(=O)(=O)c2ccc(NC(C)=O)cc2)nn1
26) COc1cc(Cn2cnnn2)ccc1O
27) COc1ccc(NC(=O)CSc2ccc3nnc(-c4ccccn4)n3n2)cc1OC
28) CC1(C)CC(=O)C2=C(C1)c1c(ccc3ccccc13)NC2c1ccc(OCC(=O)O)cc1 (stereo unspecified)
29) CCN(CC(=O)Nc1ccc(NC(C)=O)cc1)C(=O)c1cc(C)on1
30) CN(CCc1ccccc1)C(=O)c1ccc(NC(=O)Cc2ccc(NC(=O)C3CCN(S(=O)(=O)c4cccc([N+](=O)[O-])c4)CC3)cc2)cc1
Compound	25	26	27	28	29	30
CSC inhib	-9.5	-18.4	-12.8	4.4	-9.4	x
MT1-MMP act inh	-3.4	1.4	-1.0	2.0	2.4	8.5
MT1-MMP act inh RFP	-5.4	0.3	0.3	5.1	8.0	-23.9
PABP FP inh	x	-6.4	-6.0	28.2	x	x
HIV Env fusion	-21.6	x	4.3	15.6	x	-13.6
eIF4H inh	x	-11.0	-0.9	26.4	x	x
Yeast UUG start	-12.7	x	-19.1	-17.6	x	-14.8
Rce1 inhib	i	i	i	i	i	x

31) O=C(NC(=S)Nc1ccccn1)c1cccc([N+](=O)[O-])c1
32) Cc1cc2c(cc1S(=O)(=O)NCCc1ccc(Cl)cc1)OCC(=O)N2
33) O=C(Nc1nc2ccc(S(=O)(=O)N3CCCC3)cc2s1)C1CCCO1 (stereo unspecified)
34) COC(=O)c1cn(-c2nc(C)c3c(n2)CCC3)nn1
35) COc1ccc(N2C(=O)CC2(/C=C/c2ccccc2OC)C(=O)NC2CCCC2)cc1 (stereo unspecified)
36) COc1cc(C2=NOC(C(=O)Nc3ccc4c(c3)OCO4)C2)cc(OC)c1OC (stereo unspecified)
Compound	31	32	33	34	35	36
CSC inhib	11.6	5.2	-7.5	-6.2	-5.5	-5.7
MT1-MMP act inh	4.7	2.3	1.5	6.1	-2.0	5.8
MT1-MMP act inh RFP	4.0	-8.7	3.0	5.3	-7.4	-3.3
PABP FP inh	14.1	-0.6	-8.1	-5.0	-13.1	-3.2
HIV Env fusion	-60.0	4.8	-19.5	-19.2	-30.1	1.3
eIF4H inh	5.3	-3.5	-5.5	-1.7	-6.8	9.8
Yeast UUG start	-1.6	-17.2	-1.9	-3.4	6.3	-9.8
Rce1 inhib	i	i	i	i	i	i

37) Cc1ccccc1N1CCN(c2ccccc2NC(=O)/C=C\C(=O)O)CC1
38) CCCCCn1c(=O)[nH]c2cc(C(=O)NCCCN3CCCCC3)ccc2c1=O
39) Cc1cc(N2C(=O)C(O)=C(C(=O)c3ccco3)C2c2cccnc2)no1 (stereo unspecified)
40) COc1cccc(Nc2nnc(Cc3cccnc3)c3ccccc23)c1
41) Cc1ccc(-c2cn(-c3ccccc3F)c(=S)[nH]2)cc1
42) Cc1ccccc1CSc1nnc(-c2cccnc2)n1N
Compound	37	38	39	40	41	42
CSC inhib	x	-3.4	-4.8	-25.3	-16.4	-3.0
MT1-MMP act inh	-2.1	-1.2	x	-3.5	-1.7	1.4
MT1-MMP act inh RFP	-1.8	0.7	x	1.3	0.5	5.1
PABP FP inh	x	28.4	-1.3	1.2	-2.2	-2.9
HIV Env fusion	1.3	-53.6	x	-4.9	-1.4	x
eIF4H inh	x	2.5	1.6	-9.3	1.5	6.8
Yeast UUG start	10.4	-5.8	x	-10.2	-23.4	-7.1
Rce1 inhib	x	i	i	i	i	i

43) O=C(Nc1ccc(Cl)c(Cl)c1)Nc1ccccn1
44) CS(=O)(=O)N(Cc1cccc(CN(C(C(=O)O)c2ccccc2)S(C)(=O)=O)c1)C(C(=O)O)c1ccccc1 (stereo unspecified)
45) O=C1CCCC(O)=C1N=Nc1cccc(S(=O)(=O)N2CCOCC2)c1
46) CC1CCCCC1NC(=O)CSc1ccsc1[N+](=O)[O-] (stereo unspecified)
47) COc1ccc(CCNC(=O)C(C(=O)c2ccccc2)n2cc(Cl)ccc2=O)cc1OC (stereo unspecified)
48) COc1ccc2c(COC(=O)[C@H](C)NS(=O)(=O)c3ccccc3F)cc(=O)oc2c1
Compound	43	44	45	46	47	48
CSC inhib	5.1	20.2	5.1	x	-9.7	-10.6
MT1-MMP act inh	-4.6	1.0	18.2	-1.4	2.2	-3.4
MT1-MMP act inh RFP	-4.0	2.3	14.2	-3.7	3.8	2.8
PABP FP inh	-0.6	0.9	-5.8	12.5	4.3	x
HIV Env fusion	-52.1	21.4	4.1	-2.2	4.1	20.9
eIF4H inh	-0.3	-0.3	-6.9	-5.0	0.7	x
Yeast UUG start	7.7	4.3	x	x	x	-12.8
Rce1 inhib	i	i	i	x	i	x

Quoted from above (7 entries):
39) Cc1cc(N2C(=O)C(O)=C(C(=O)c3ccco3)C2c2cccnc2)no1 (stereo unspecified)
40) COc1cccc(Nc2nnc(Cc3cccnc3)c3ccccc23)c1
41) Cc1ccc(-c2cn(-c3ccccc3F)c(=S)[nH]2)cc1
42) Cc1ccccc1CSc1nnc(-c2cccnc2)n1N
43) O=C(Nc1ccc(Cl)c(Cl)c1)Nc1ccccn1
44) CS(=O)(=O)N(Cc1cccc(CN(C(C(=O)O)c2ccccc2)S(C)(=O)=O)c1)C(C(=O)O)c1ccccc1 (stereo unspecified)
45) O=C1CCCC(O)=C1N=Nc1cccc(S(=O)(=O)N2CCOCC2)c1
Compound	39	40	41	42	43	44	45
CSC inhib	-4.8	-25.3	-16.4	-3.0	5.1	20.2	5.1
MT1-MMP act inh	x	-3.5	-1.7	1.4	-4.6	1.0	18.2
MT1-MMP act inh RFP	x	1.3	0.5	5.1	-4.0	2.3	14.2
PABP FP inh	-1.3	1.2	-2.2	-2.9	-0.6	0.9	-5.8
HIV Env fusion	x	-4.9	-1.4	x	-52.1	21.4	4.1
eIF4H inh	1.6	-9.3	1.5	6.8	-0.3	-0.3	-6.9
Yeast UUG start	x	-10.2	-23.4	-7.1	7.7	4.3	x
Rce1 inhib	i	i	i	i	i	i	i

(further entries)
49) O=C(O)CSc1cnc2ccccc2n1
50) CCCCOC(=O)CCCc1ccc([N+](=O)[O-])cc1[N+](=O)[O-]
51) CC(C)CN1CCNC(=O)C1CC(=O)NCCCN1CCCc2ccccc21 (stereo unspecified)
52) S=C(NCCc1ccccc1)N1CCn2cccc2C1c1cccnc1 (stereo unspecified)
53) Cc1ccc(C2CC(=O)c3cnc(N4CCc5ccccc5C4)nc3C2)cc1 (stereo unspecified)
54) CCCCNC(=O)C(=O)N/N=C/c1cccc(Br)c1
55) COc1ccc(S(=O)(=O)Oc2cc(C(=S)N3CCOCC3)ccc2OC)cc1
56) CC1CN(c2cc3nccnc3cc2F)CC(C)O1 (stereo unspecified)
Compound	49	50	51	52	53	54	55	56
CSC inhib	-4.7	-9.3	-11.9	-18.0	21.1	4.1	x	-12.2
MT1-MMP act inh	-0.4	-6.0	2.7	0.5	2.9	2.4	1.7	-5.2
MT1-MMP act inh RFP	-0.9	-3.1	8.2	-2.0	1.0	-1.3	-0.6	-2.2
PABP FP inh	3.3	3.3	51.8*	-3.1	-6.5	4.4	8.3	0.9
HIV Env fusion	x	18.9	6.6	6.1	67.5*	x	2.3	x
eIF4H inh	7.0	4.1	16.1	21.4	-4.3	0.4	-5.4	-2.6
Yeast UUG start	-13.6	x	9.4	x	-5.3	x	-12.6	-6.1
Rce1 inhib	i	i	i	i	i	i	i	i

Source: PubChem (several laboratories)
